Screening results: PubChem, National Center for Advancing Translational Sciences (NCATS)
Six1-Eya2 blk = blocks human Six1 binding to Eya2. AlphaScreen GST-Six1/His-Eya2 binding, biochemical; stronger effect = lower value; control for the full effect not named in the record. activity change, % (no concentration beside the values). hit rate 0.56% among 360,000; in the data active = activity change below about -65%; inconclusive = about -30% to -65%; inactive = above about -30%; note: % is set by controls: 0 for no effect and ±100 for the full control effect; compound concentration not given in the record
Target sequence (O00167 whole entry, looked up): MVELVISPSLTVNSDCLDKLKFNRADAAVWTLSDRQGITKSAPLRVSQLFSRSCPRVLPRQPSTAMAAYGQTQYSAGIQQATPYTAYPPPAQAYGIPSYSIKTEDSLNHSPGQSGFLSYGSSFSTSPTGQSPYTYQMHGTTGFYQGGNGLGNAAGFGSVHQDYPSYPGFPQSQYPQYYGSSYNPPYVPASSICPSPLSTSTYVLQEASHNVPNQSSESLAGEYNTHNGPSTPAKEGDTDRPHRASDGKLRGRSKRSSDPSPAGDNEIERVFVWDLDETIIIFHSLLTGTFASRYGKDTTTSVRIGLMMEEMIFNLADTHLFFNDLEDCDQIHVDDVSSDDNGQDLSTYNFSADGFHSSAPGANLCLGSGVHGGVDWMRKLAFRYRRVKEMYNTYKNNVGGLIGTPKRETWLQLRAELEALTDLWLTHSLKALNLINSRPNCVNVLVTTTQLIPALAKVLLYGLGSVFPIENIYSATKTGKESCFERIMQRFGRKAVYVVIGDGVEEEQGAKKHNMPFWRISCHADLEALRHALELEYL
Target sequence (Q15475 whole entry, looked up): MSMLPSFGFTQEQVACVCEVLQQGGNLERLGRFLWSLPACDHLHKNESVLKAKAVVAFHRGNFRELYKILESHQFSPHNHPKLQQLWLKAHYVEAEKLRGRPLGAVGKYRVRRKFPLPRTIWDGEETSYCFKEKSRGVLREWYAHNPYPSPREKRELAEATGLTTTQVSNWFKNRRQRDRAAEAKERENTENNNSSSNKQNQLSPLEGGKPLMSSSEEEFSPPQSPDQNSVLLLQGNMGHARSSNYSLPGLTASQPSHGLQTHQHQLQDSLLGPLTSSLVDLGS
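Six1/Eya2 binding was read as AlphaScreen signal after compounds were pinned into GST-Six1 plus His-tagged Eya2 (5X stock 250/500 nM) in pH 8.0 Tris/NaCl/TCEP buffer, beads added, then incubated 1 h, 37 C, dark.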
D2 ag = human D2 receptor agonism in beta-arrestin assay. hit rate 0.084% among 360,000. DiscoveRx PathHunter D2 beta-arrestin, luminescence, 90 min; 100% = 57 uM dopamine signal. P14416. activation, % (test concentration not listed); in the data active = activation above about 40%; inconclusive = about 15% to 40%; inactive = below about 15%; note: compound concentration not given in the record; the text of the record calls up to 30% inactive
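DiscoveRx PathHunter D2 beta-arrestin cells (2,100/well) attached overnight, then compound-stimulated 90 min at 37 C in HBSS/10 mM HEPES/0.1% Tween-20 buffer; beta-galactosidase complementation read by luminescence after 1 h at ambient temperature. Dopamine 57 uM final (EC100) as control.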
PINK1 modulator = changes PINK1 expression | PINK1 immunofluorescence, high-content cytometry, 24 h | Potency, µM (titrated, usually from 76.6 µM), for inactives: top-dose activation (PINK1 increase), most hits filed as activators | hit rate 0.2% among 410,000; active = well fitted activation curve with a large enough effect; inconclusive = small, poorly fitted or top-dose-only effect; inactive = flat fitted curve, though single readings scatter; cell line not stated here;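 note: potency is the fitted concentration of half-maximal effect; % of control where 0% means no effect; nearly all actives have a fitted effect of over 65% in size; a mitochondrial uncoupler was the plate control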
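Decision-based qHTS: stable cells, 24 h exposure to five compound concentrations, CCCP as control. Fixed cells stained for PINK1 plus nuclear, mitochondrial and cell markers, cytometer read.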
TRPML1 inh = blocks the human TRPML1 channel; Q9GZU1; TRPML1-inducible cells, Ca2+ dye fluorescence, FDSS; stronger effect = lower value; inhibition of EC80 agonist-evoked calcium signal; activity change, negative = inhibition, % (test concentration not listed); hit rate 0.02% among 390,000; AID 624415; in the data active means activity change below about -50%; inconclusive means about -30% to -50%; inactive means above about -30%;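 note: stimulus is agonist 54-4 at its EC80 concentration; % is set by controls: 0 for no effect and ±100 for the full control effect; compound concentration not given in the record; the text of the record puts the active cut at -80%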
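Calcium fluorescence in TRPML1-DL cells induced overnight with Tet: a 110 s read after compound pin addition, then a 110 s antagonist read after challenge with 54-4 at 4 uM final (EC80).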
D2 PAM = positive allosteric modulators of human D2 dopamine receptor; P14416; DiscoveRx D2 beta-arrestin cells, luminescence, 90 min; 100% = 57 uM dopamine signal; potentiation, % (test concentration not listed); hit rate 0.23% among 360,000; active = potentiation of 50% or more; inconclusive = 30% to 50%; inactive = 30% or less;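 note: compound concentration not given in the record; tested on top of an EC20 dose of dopamine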
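PathHunter D2 cells, attached overnight at 37 deg C, received compound in DMSO plus dopamine at EC20 (50 nM final) for 90 min at 37 deg C. Beta-arrestin recruitment was read as luminescence after 1 h with detection reagent at ambient temperature.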
TRPML1 ag = human mucolipin-1 channel agonism; Q9GZU1; TRPML1-expressing cells, Ca2+ dye fluorescence, FDSS; host cell line not named in the record; reference of the full effect not given here; activation, % (test concentration not listed); hit rate 0.12% among 410,000; in the data active = activation above about 50%; inconclusive = about 30% to 50%; inactive = below about 30%; note: 0% is about no effect; the text of the record puts the active cut at 80%
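Tet-induced TRPML1-DL cells, 1,500 per well, cultured overnight, were loaded with a no-wash Ca2+ dye for 45–90 min. Calcium fluorescence was recorded on the FDSS for 110 s after compound addition, before the EC80 agonist (4 uM 54-4) was added.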
Numbers without * were called inactive; x = no result given; [ ] = dose if it differs, or a comment. A portion of the library; count on the stated rates, not on these rows.

SMILES	Six1-Eya2 blk	D2 ag	PINK1 modulator	TRPML1 inh	D2 PAM	TRPML1 ag
CN(C)C(=O)Oc1cccc2c(OC(=O)N(C)C)cccc12	-0.1	-1.9	-1.9%	4.6	14.1	-0.9
CC(Cc1ccccc1)[n+]1cc(/N=C(\[O-])Nc2ccccc2)on1 (stereo not given)	-4.7	0.3	1.6%	-17.3	-2.9	1.6
CN1C(=O)C(=CN2CCN(C(=O)c3ccco3)CC2)C(=O)N(C)C1=S	-3.0	9.3	-2.5%	4.4	-5.6	-0.3
O=C(/C=C/c1ccc2c(c1)OCO2)c1c(O)n(CCC2=CCCCC2)c(=O)[nH]c1=O	3.6	1.7	-0.4%	-3.9	-16.7	-0.4
Cc1ccc(-n2c(O)c(/C=N/c3ncc(Br)cc3Br)c(=O)[nH]c2=O)cc1	-1.3	-3.7	1.8%	21.9	8.1	-0.9
CN(C)C(=O)NC(O)C(Cl)(Cl)Cl (stereo not given)	1.5	-2.4	4.5%[38.3 µM]	-6.5	-11.5	0.7
Cc1ccc(S(=O)(=O)N2Cc3ccccc3-n3nncc3C2)cc1	4.3	2.5	0.2%	-12.3	-1.5	1.9
CCOc1ccc(-c2cc(C)[n+](CCN(CC)CC)c(-c3ccc(OCC)cc3)c2)cc1	-7.4	-2.1	15.8µM*	37.4	-25.1	-0.4
CC(=O)OC1=CC[C@H]2[C@@H]3CC[C@H]4C[C@H](OC(C)=O)[C@@H](OC(C)=O)C[C@]4(C)[C@H]3CC[C@]12C	21.7	-6.7	1.4%	22.1	-0.7	0.3
O=C(COc1ccccc1Cl)N1CCCC(N2CCN(c3ccc(F)cc3)CC2)C1 (stereo not given)	-14.3	-0.3	1.5%	10.2	-23.4	-1.1
Cc1cccc(C(=O)NC(Oc2ccccc2)C(Cl)(Cl)Cl)c1 (stereo not given)	11.7	-2.0	4.7%	5.9	6.2	3.7
CCOC(=O)CCCCCNC(=O)c1c(O)[nH]c(=O)[nH]c1=O	-1.4	-1.9	2.5%	-21.3	-33.0	-0.9
O=[N+]([O-])c1ccc(N2CCCC2)c2ncccc12	-5.9	-5.0	20.3%	-5.8	-7.6	0.2
O=C(c1n[nH]c(=O)c2ccccc12)N1CCC2(CC1)OCCO2	12.1	-1.1	-0.3%	0.3	-4.6	0.8
N/C(=N/[N+](=O)[O-])N1CCN(C(=O)c2ccc(Cl)cc2)CC1	-4.4	-0.6	-2.1%	4.7	-2.1	0.3
Cc1ccc(C2NC(=S)NC(c3ccc(C)cc3)C23C(=O)NC(=O)NC3=O)cc1 (stereo not given)	-0.4	-1.7	1.8%	-15.5	7.5	-0.1
O=[N+]([O-])c1ccc(NCCCN2CCOCC2)nc1	-0.6	0.3	1.4%	-18.5	-34.9	0.5
CN(C)Cc1ccccc1OC(=O)N(C)C	6.0	-0.4	0.4%	59.3	-7.2	0.3
Cc1cccc(NC(=O)Cn2cc(C(=O)c3ccccc3)c3ccccc32)c1C	x	x	3.3%	-11.1	x	0.7
Cc1nc(Cl)sc1C(=O)Nc1ccc2ccccc2c1	-13.2	-0.1	6.7%	12.3	-8.5	0.6
COP(=O)(OC)C(Nc1ccccc1)c1ccccc1 (stereo not given)	-4.7	-2.2	-1.0%	-6.8	-3.8	0.6
COc1ccc(OC)c(NC2=NCCCS2)c1	1.1	-1.4	-1.4%	11.0	-2.9	-0.2
CN1CCN(c2cc([N+](=O)[O-])ccc2Cl)CC1	0.5	-4.0	-1.5%	-12.9	-8.8	0.8
O=C1/C(=C/c2ccc([N+](=O)[O-])cc2)N2CCC1CC2	-0.4	0.1	7.3%	11.4	0.5	-0.4

Rewritten with bars between the fields: entries from further up.
mol | Six1-Eya2 blk | D2 ag | PINK1 modulator | TRPML1 inh | D2 PAM | TRPML1 ag
O=[N+]([O-])c1ccc(NCCCN2CCOCC2)nc1 | -0.6 | 0.3 | 1.4% | -18.5 | -34.9 | 0.5
CN(C)Cc1ccccc1OC(=O)N(C)C | 6.0 | -0.4 | 0.4% | 59.3 | -7.2 | 0.3

Remaining list, next part
SMILES	Six1-Eya2 blk	D2 ag	PINK1 modulator	TRPML1 inh	D2 PAM	TRPML1 ag
CCOP(=O)(OCC)C(NC(=O)c1ccccc1Cl)=C(Cl)Cl	0.7	-3.2	0.2%	0.7	-4.4	-0.5
Cc1nn(Cc2ccccc2Cl)c(Cl)c1C(=O)OCC(=O)NCc1ccco1	2.2	-0.9	6.3%[38.3 µM]	16.7	3.8	-0.3
CCCC12CN3CC(C)(CN(C1)C3c1c(C)[nH]c(=O)[nH]c1=O)C2=O (stereo not given)	x	x	0.5%	-18.0	x	1.2
Cc1ccccc1-c1nc(CN2C(=O)CN=C(c3ccccc3)c3ccccc32)c(C)o1	x	x	-0.2%	75.6	x	0.5
O=C(NC(c1ccc(Cl)cc1)P(=O)(Oc1ccccc1)Oc1ccccc1)OCc1ccccc1 (stereo not given)	-1.2	-2.4	3.1%	6.8	-12.8	-0.7
CC(=O)NN1C(=O)c2ccccc2NC1c1cccnc1 (stereo not given)	11.3	-2.5	-1.1%	34.3	-10.0	1.0
O=C1CN=C(c2cccc(Br)c2)c2cc(Br)ccc2N1	-5.1	-3.6	6.5%	2.9	-1.2	0.9
Cc1cc(C)c(C)c(C(O)(C(=O)O)c2ccccc2)c1C (stereo not given)	9.5	-0.6	-3.2%	5.9	-5.2	-0.3
O=C(O)C(Br)CBr (stereo not given)	3.6	0.5	0.0%	2.2	-2.3	-0.2
CN(C)c1ccc(NC(=O)c2sc3nc4c(cc3c2N)N2CCC4CC2)cc1	x	x	6.1%	17.9	x	2.0
CN1CC(C(=O)c2ccc(F)cc2)C(c2c(F)cccc2Cl)C1 (stereo not given)	-7.1	-3.1	2.0%	-5.6	-23.9	-0.4
Fc1ccccc1CCNCc1ccccc1	8.1	0.1	0.7%	-15.6	-17.5	0.3

Compound profiles, as listed above. Values in the order: Six1-Eya2 blk | D2 ag | PINK1 modulator | TRPML1 inh | D2 PAM | TRPML1 ag
`CCOP(=O)(OCC)C(NC(=O)c1ccccc1Cl)=C(Cl)Cl` across the screens: 0.7 | -3.2 | 0.2% | 0.7 | -4.4 | -0.5
`CC(=O)NN1C(=O)c2ccccc2NC1c1cccnc1` (stereo not given) across the screens: 11.3 | -2.5 | -1.1% | 34.3 | -10.0 | 1.0
`O=C1CN=C(c2cccc(Br)c2)c2cc(Br)ccc2N1` across the screens: -5.1 | -3.6 | 6.5% | 2.9 | -1.2 | 0.9
`CN(C)c1ccc(NC(=O)c2sc3nc4c(cc3c2N)N2CCC4CC2)cc1` across the screens: x | x | 6.1% | 17.9 | x | 2.0
`Cc1ccccc1-c1nc(CN2C(=O)CN=C(c3ccccc3)c3ccccc32)c(C)o1` across the screens: x | x | -0.2% | 75.6 | x | 0.5

Continued.
SMILES	Six1-Eya2 blk	D2 ag	PINK1 modulator	TRPML1 inh	D2 PAM	TRPML1 ag
COc1ccc(OC)c(N2C(=O)CC(=O)NC2=O)c1	17.4	0.3	1.1%	-10.6	-3.0	0.9
COC(=O)C1C(C(=O)O)C2(Cl)C(Cl)=C(Cl)C1(Cl)C2(Cl)Cl (stereo not given)	11.9	0.9	0.1%	-8.0	-10.1	0.3
CCN1C(=O)c2ccccc2Sc2ccc(C(=O)N3CCC4(CC3)OCCO4)cc21	5.2	2.6	-2.1%	0.4	-2.7	0.5
CCCCn1nnnc1C(CCc1ccccc1)N1CCC2(CC1)C(=O)NCN2c1ccccc1 (stereo not given)	-11.1	-1.1	3.5%	x	-12.5	-0.5
COCCCN1CCN(c2nnc3n2-c2sc(Br)cc2C(c2ccccc2Cl)=NC3)CC1	-0.7	-1.2	-1.5%	1.6	-16.1	-0.1
COC(=O)C(O)(c1ccc(NC(=O)Oc2ccccc2)cc1)C(F)(F)F (stereo not given)	5.9	3.5	0.4%	-11.5	5.2	0.0
Cc1[nH]c2ccccc2c1CCNCc1ccco1	-9.9	-1.8	-0.1%	5.0	-16.9	0.5
Cc1ccsc1C(=O)C1CCCN(Cc2cnn(C)c2)C1 (stereo not given)	-3.7	-1.8	-1.2%	30.4	-16.4	0.6
COC(=O)C1=C(c2ccc(OC)c(OC)c2)C[C@@H]2CC[C@H]1N2C(=O)NC1CCCCC1	6.5	-2.5	-0.5%	6.9	-3.9	0.0
COC(=O)C1=C(c2cc3ccccc3s2)C[C@@H]2CC[C@H]1N2C(=O)NC(C)C	7.1	-1.3	-0.9%	5.8	-15.7	0.7
O=C(O)C1CC2(Cl)C(Cl)=C(Cl)C1(Cl)C2(Cl)Cl (stereo not given)	-1.7	-3.5	-2.6%	0.1	0.7	2.4
CC(=O)OC1(c2ccccc2)CCN(C)C2CCCCC21 (stereo not given)	5.3	-1.7	x	16.5	-7.1	0.5
Cc1ccccc1NC(=O)N1Cc2ccccc2-n2nncc2C1	-2.3	-11.0	0.1%	-16.6	1.6	-0.6
O=C1C2(Cl)C3(Cl)C4(Cl)C(Cl)(Cl)C5(Cl)C3(Cl)C1(Cl)C5(Cl)C24Cl (stereo not given)	-1.4	5.5	0.0%	1.8	-8.5	0.3
O=C(C1CCC(=O)N1Cc1ccccc1Cl)N1CCC2(CC1)OCCO2 (stereo not given)	7.4	-2.5	0.7%	-14.1	2.4	-0.5
O=C(CCC(=O)N1C[C@H]2C[C@@H](C1)c1cccc(=O)n1C2)NCc1ccccc1C(F)(F)F	9.1	-4.3	1.7%	0.8	-1.8	0.2
O=C(C[N+]12CCC(CC1)C(O)C2)c1ccc(Br)cc1 (stereo not given)	-11.5	-5.7	0.2%	x	-7.6	x
O=C(CNS(=O)(=O)c1cccs1)N1CCC2(CC1)OCCO2	0.1	-7.8	-0.4%	-9.3	-10.5	-0.8
CC(=O)N[C@@H]1CC[C@@]2(O)[C@H]3Cc4ccc(O)c5c4[C@@]2(CCN3CC2CC2)[C@@H]1O5	-2.5	1.9	0.9%	2.6	-11.3	-0.6
COC(=O)C1=C(c2cccc(OC)c2OC)C[C@@H]2CC[C@H]1N2C(=O)N1CCC(O)CC1	6.7	-1.9	-1.3%	11.5	-8.0	-0.5
O=C(NCC1=C(c2ccc3ccccc3c2)C[C@@H]2CC[C@H]1N2Cc1ccco1)c1nccs1	-12.9	-5.2	0.3%	21.9	0.7	-0.3
